DUX4 inh: blocks DUX4-driven transcriptional activation | activity change, negative = inhibition, % (test concentration not listed) | 293T-iDUX4 ZSCAN4-Gaussia luciferase reporter, 24 h; stronger effect = lower value | AID 1224904 | 37,000 compounds, 0.8% hits;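 active = -10% or lower and over 25 points stronger than a control reporter; inconclusive = -10% or lower with a smaller gap; inactive = above -10%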;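 note: 0% = median of neutral control wells and -100% = median of positive control wells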
DUX4 inh difference: second read-out of DUX4 inh, no call of its own (marks repeat the call); Gaussia minus Italica difference, %; measured here: selective DUX4 reporter inhibition;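 worked out from the two reporters; negative = selective loss of the DUX4 reporter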
DUX4 inh control: also measured in DUX4 inh; calls as there; activity change, negative = inhibition, %; measured here: Italica tet-on control reporter;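 0 = neutral control and -100 = positive control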
* hit, by the source's call; ? = inconclusive; . = no result given. Only part of the results is shown (hit frequency here may not be typical).

structure,DUX4 inh control,DUX4 inh,DUX4 inh difference
C[C@@H]1CCCCO[C@@H](CN(C)S(=O)(=O)c2ccc(Cl)cc2)[C@@H](C)CN([C@H](C)CO)C(=O)c2cc(NC(=O)CCCN(C)C)ccc2O1,-1.7,0,1
CN(C)C(=O)c1cccc(-c2ccc([C@@H]3[C@H](C#N)N(C(=O)C4CCC4)[C@H]3CO)cc2)c1,2.8,0,-3
CCN1[C@@H]2c3ccc(-c4ccccc4OC)c(=O)n3C[C@@H]2[C@@H](CO)[C@@H]1C(=O)N(C)C,-3.3,5,8
CCCC(=O)N1CC2(C1)CN(Cc1ccc(Cl)cc1)[C@@H](CO)c1[nH]c3cc(OC)ccc3c12,-42*,-85*,-43*
O=C(c1cnccn1)N1CC(=O)N2[C@H](CO)[C@@H](c3ccc(C4=CCCCC4)cc3)[C@@H]2C1,1.6,1,-1
CC(C)NC(=O)N1[C@H](CO)[C@@H]2c3ccccc3N(C(=O)c3ccncc3)C[C@@H]21,2.1,2,0
COc1ccc2c3c(n(C)c2c1)[C@@H](CO)NCC31CCN(C(=O)Nc2ccc3c(c2)OCO3)CC1,14,2,-13
CS(=O)(=O)N1CC(=O)N2[C@H](C1)[C@@H](c1ccc(C#CCc3ccccc3)cc1)[C@@H]2CO,.,?,.
O=C(C[C@@H]1CC[C@@H]2[C@H](COC[C@@H](O)CN2Cc2cccc(Cl)c2)O1)Nc1nccs1,.,?,.
C[C@@H](NC(=O)C[C@@H]1CC[C@H]2[C@@H](COC[C@@H](O)CN2Cc2cc(F)ccc2F)O1)c1ccccc1,2.7,-6,-9
COc1cccc(-c2ccc([C@H]3[C@@H](CO)N4CCCCN(Cc5cncnc5)C[C@@H]34)cc2)c1,10,11,1
CCS(=O)(=O)N1CC(=O)N2[C@H](C1)[C@@H](c1ccc(C#Cc3ccc(F)cc3)cc1)[C@@H]2CO,.,?,.
C[C@H](CO)N1C[C@H](C)[C@H](CN(C)S(=O)(=O)c2ccc(F)cc2)OCCCC[C@H](C)Oc2ccc(NC(=O)CCCCCC(=O)Nc3ccccc3N)cc2C1=O,1.0,5,4
COc1ccccc1CN1C[C@H](C)[C@H](OC)CN(C)C(=O)c2ccc(NC(C)=O)cc2OC[C@@H]1C,6.7,2,-5
CN(C)CCCNC(=O)[C@H]1[C@H](CO)[C@H]2Cn3c(ccc(-c4cccc(F)c4)c3=O)[C@H]2N1C,2.7,12,10
C[C@@H]1CN([C@@H](C)CO)C(=O)c2cccc(NC(=O)Nc3ccc(C(F)(F)F)cc3)c2O[C@H]1CN(C)Cc1ccc2c(c1)OCO2,0.4,1,1
C[C@H]1CN([C@@H](C)CO)C(=O)CCCn2nncc2CO[C@@H]1CN(C)S(=O)(=O)c1ccc(-c2ccccc2)cc1,-4.3,-1,3
CO[C@@H](CN(C)S(=O)(=O)c1cn(C)cn1)[C@H](C)CN(C(=O)Nc1ccc(F)cc1)[C@@H](C)CO,3.0,2,-2
COCC#Cc1cnc2c(c1)C(=O)N([C@@H](C)CO)C[C@H](C)[C@H](CN(C)C(=O)CCN1CCCCC1)O2,-1.8,-6,-4
C[C@H]1CN([C@@H](C)CO)S(=O)(=O)c2ccc(C#CC3CCCC3)cc2O[C@@H]1CN(C)C(=O)Cc1ccccc1,-1.3,-3,-1
N#C[C@H]1[C@@H](c2ccccc2)[C@@H](CO)N1C(=O)Cc1ccccc1,3.6,0,-4
O=C([C@H]1[C@H](CO)[C@H]2Cn3c(cccc3=O)[C@@H]1N2Cc1cocn1)N1CCCCC1,1.3,1,0
O=C(NCc1ccncc1)[C@@H]1N[C@@H]2c3ccc(/C=C/c4ccccc4)c(=O)n3C[C@@H]2[C@H]1CO,-5.9,-4,2
COc1ccc2c3c(n(C)c2c1)[C@H](CO)N(C(=O)c1ccccc1)CC31CN(Cc2ccccc2OC)C1,.,?,.
COCC(=O)Nc1ccc2c(c1)[C@@H]1C[C@H](CC(=O)NC3CCCC3)O[C@H](CO)[C@@H]1O2,5.1,-3,-8
CN1C(=O)c2cc(NC(=O)c3cccc(F)c3)ccc2OC[C@H]2O[C@@H](CC(=O)NC3CCC3)CC[C@@H]21,1.9,-1,-3
COc1cccc(-c2ccc([C@H]3[C@@H](CO)N4CCCCN(S(=O)(=O)c5cccs5)C[C@H]34)cc2)c1,.,?,.
CCS(=O)(=O)Nc1ccc2c(c1)C(=O)N(C)[C@@H]1CC[C@H](CC(=O)NCCOC)O[C@H]1CO2,0.8,1,1
C[C@H]1CN([C@@H](C)CO)C(=O)c2cccc(NC(=O)Nc3ccc4c(c3)OCO4)c2O[C@H]1CN(C)Cc1ccc(C(=O)Nc2ccccc2N)cc1,0.5,-2,-3
CCC(=O)N1CC2(CCN(Cc3cncnc3)CC2)c2c([nH]c3cc(OC)ccc23)[C@@H]1CO,-1.6,7,8
COc1ccccc1CNC(=O)C[C@H]1C[C@H]2c3cc(NS(=O)(=O)c4ccc(F)cc4)ccc3O[C@H]2[C@H](CO)O1,.,?,.
Cc1noc(C)c1S(=O)(=O)Nc1ccc2c(c1)CC(=O)N([C@@H](C)CO)C[C@H](C)[C@H](CN(C)Cc1ccc(Oc3ccccc3)cc1)O2,-0.5,0,1
CC1C=NC(S(=O)(=O)N2CC[C@@H]3[C@H](CO)N(C)c4ccc(C#Cc5cccnc5)cc4[C@@H]32)=N1 (stereo not given in full),-2.6,19,21
COc1ccc2c3c(n(C)c2c1)[C@H](CO)NCC31CCN(Cc2cc(-c3ccccc3)on2)CC1,5.3,2,-3
O=C(C[C@@H]1CC[C@H]2[C@@H](COC[C@@H](O)CN2C(=O)c2cccnc2)O1)NCc1ccc(Cl)cc1,2.9,11,8
C[C@@H]1CN([C@H](C)CO)C(=O)Cc2cc(NC(=O)Nc3cccc4ccccc34)ccc2O[C@H]1CN(C)Cc1ccc(C(=O)O)cc1,1.2,-4,-5
O=C(Cc1ccccc1)N1CC(=O)N2[C@H](CO)[C@@H](c3ccc(C#CCc4ccccc4)cc3)[C@@H]2C1,6.7*,-33*,-40*
CCCNC(=O)[C@@H]1[C@@H](CO)[C@@H]2Cn3c(ccc(C4=CCCC4)c3=O)[C@H]1N2,-0.9,9,10
C[C@H]1CN([C@@H](C)CO)C(=O)c2cc(NS(=O)(=O)c3cn(C)cn3)ccc2O[C@@H]1CN(C)C(=O)Nc1cccc2ccccc12,-0.9,-1,0
CCCC#Cc1ccc([C@H]2[C@H](CO)N3C(=O)CN(C(=O)c4ccc(F)cc4)C[C@@H]23)cc1,-3.3,15,18
O=C(C[C@@H]1CC[C@H]2[C@@H](COC[C@@H](O)CN2C(=O)c2cnccn2)O1)NCc1ccc(F)cc1,3.2,12,9
CCS(=O)(=O)N1CC2(C1)[C@H](c1ccccc1)[C@@H](CO)N2C(=O)c1ccccc1,5.0,-7,-12
CCCC#Cc1ccc([C@H]2[C@H](CO)N3CCCCN(S(C)(=O)=O)C[C@@H]23)cc1,13,16,3
CS(=O)(=O)N1[C@@H](C#N)[C@@H](c2ccc(C#CC3CC3)cc2)[C@@H]1CO,1.9,1,-1
O=C(C[C@@H]1C[C@@H]2c3cc(NC(=O)C4CCOCC4)ccc3O[C@@H]2[C@@H](CO)O1)NCc1cccnc1,7.4,2,-6
COCC(=O)N1CCCCN2[C@H](CO)[C@H](c3ccc(-c4ccc(OC)cc4)cc3)[C@H]2C1,-4.1,17,21
CC(=O)N1CCCCN2[C@H](CO)[C@H](c3ccc(C#Cc4ccccc4F)cc3)[C@@H]2C1,-24,-9,15
N#C[C@@H]1[C@@H](c2ccccc2C2=CCCCC2)[C@@H](CO)N1C(=O)C1CCOCC1,3.9,11,7
N#C[C@@H]1[C@H](c2ccccc2-c2ccc(F)cc2)[C@H](CO)N1C(=O)Cc1cccnc1,4.3,12,7
COc1cccc(-c2ccc([C@H]3[C@@H](CO)N4CCCCN(CC5CC5)C[C@@H]34)cc2)c1,-1.2,-6,-5

Going on with the list:
structure,DUX4 inh control,DUX4 inh,DUX4 inh difference
CC(=O)NC[C@@H]1[C@@H](c2ccc(-c3cccnc3)cc2)[C@@H](CO)N1C(=O)C1CCC1,-0.8,-1,0
CCCC#Cc1ccc([C@H]2[C@@H](C#N)N(C(=O)C3CC3)[C@@H]2CO)cc1,-1.3,-1,1
CN(C[C@H]1[C@H](c2ccccc2)[C@@H](CO)N1CC1CC1)C(=O)c1cccc(F)c1,2.9,2,-1
CS(=O)(=O)N1[C@H](C#N)[C@@H](c2ccc(C#CC3CCCC3)cc2)[C@@H]1CO,4.1,0,-4
Cc1cc(C(=O)Nc2cccc3c2O[C@H](CN(C)C)[C@H](C)CN([C@@H](C)CO)C3=O)n(C)n1,3.7,-6,-9
O=C(Cc1ccncc1)NCC[C@H]1CC[C@H](NC(=O)Nc2cccc(F)c2)[C@H](CO)O1,4.8,3,-1
COc1ccc2c3c([nH]c2c1)[C@H](CO)N(C(=O)C1CCOCC1)CC31CN(S(C)(=O)=O)C1,1.3,-4,-6
CCCNC(=O)N1CCC2(CC1)CN(C(=O)CC1CC1)[C@H](CO)c1[nH]c3cc(OC)ccc3c12,9.3,8,-1
C[C@H](CO)N1C[C@H](C)[C@H](CN(C)Cc2ccc(Cl)c(Cl)c2)Oc2c(NC(=O)C3CCCCC3)cccc2C1=O,-5.3,-1,5
O=C([C@H]1[C@H](CO)[C@H]2Cn3c(ccc(-c4ccccc4)c3=O)[C@H]2N1Cc1cocn1)N1CCCCC1,1.2,3,2

In another format: entries from further up.
CCCNC(=O)N1CCC2(CC1)CN(C(=O)CC1CC1)[C@H](CO)c1[nH]c3cc(OC)ccc3c12
- DUX4 inh control: 9.3
- DUX4 inh: 8
- DUX4 inh difference: -1

O=C(C[C@@H]1C[C@@H]2c3cc(NC(=O)C4CCOCC4)ccc3O[C@@H]2[C@@H](CO)O1)NCc1cccnc1
- DUX4 inh control: 7.4
- DUX4 inh: 2
- DUX4 inh difference: -6

Cc1cc(C(=O)Nc2cccc3c2O[C@H](CN(C)C)[C@H](C)CN([C@@H](C)CO)C3=O)n(C)n1
- DUX4 inh control: 3.7
- DUX4 inh: -6
- DUX4 inh difference: -9

O=C(Cc1ccccc1)N1CC(=O)N2[C@H](CO)[C@@H](c3ccc(C#CCc4ccccc4)cc3)[C@@H]2C1
- DUX4 inh control: 6.7*
- DUX4 inh: -33*
- DUX4 inh difference: -40*

Next section:
structure,DUX4 inh control,DUX4 inh,DUX4 inh difference
CNC[C@@H]1OCCCC[C@H](C)Oc2ccc(NS(=O)(=O)c3c(C)noc3C)cc2C(=O)N([C@@H](C)CO)C[C@H]1C,1.3,-1,-2
CNC(=O)C[C@H]1CC[C@@H]2[C@H](COC[C@@H](O)CN2Cc2ccc(C(F)(F)F)cc2)O1,-6.6,0,6
C[C@H]1CN([C@@H](C)CO)C(=O)c2c(c3ccccc3n2C)-c2ccccc2CO[C@@H]1CN(C)C(=O)CCC(F)(F)F,.,?,.
CO[C@H]1CN(C)C(=O)c2ccc(NC(=O)C3CC3)cc2OC[C@H](C)N(Cc2nccs2)C[C@H]1C,1.4,1,0
C[C@@H]1CN([C@@H](C)CO)S(=O)(=O)c2ccc(Br)cc2O[C@@H]1CN(C)Cc1cncnc1,-2.0,-1,1
O=C(Nc1ccccc1)N1CC(=O)N2[C@H](CO)[C@H](c3ccc(C#CC4CCCCC4)cc3)[C@H]2C1,-5.1,-1,4
O=C(C[C@@H]1CC[C@@H]2[C@H](COC[C@@H](O)CN2C(=O)Nc2ccccc2)O1)NCc1ccncn1,16,17,1
CCN1[C@@H]2Cn3c(ccc(-c4ccccc4OC)c3=O)[C@H]1[C@@H](C(=O)N[C@@H](C)c1ccccc1)[C@@H]2CO,2.5,5,3
COCCN(C[C@H]1[C@H](c2ccccc2)[C@H](CO)N1C(C)=O)C(=O)c1cccnc1,2.8,1,-2
COc1ccc2c3c(n(C)c2c1)[C@H](CO)N(C(=O)Nc1ccccc1F)CC31CN(C(=O)c2ccccc2F)C1,.,?,.
CC=Cc1ccc2n(c1=O)C[C@@H]1[C@@H](CO)[C@H](C(=O)N(C)C)[C@H]2N1CC1CCOCC1 (mixture of isomers),2.9,1,-2
O=C(C[C@@H]1CC[C@@H]2[C@H](COC[C@@H](O)CN2C(=O)Nc2ccc(Cl)cc2)O1)NC1Cc2ccccc2C1,.,?,.
COc1ccc2c3c(n(C)c2c1)[C@@H](CO)NCC31CN(Cc2ccncc2)C1,-6.5,-2,5
COc1ccc2c3c(n(C)c2c1)[C@H](CO)N(Cc1nccs1)CC31CCN(C(=O)CC2CC2)CC1,0.4,2,1
O=C(c1ccccn1)N1CC[C@H]2[C@H](CO)Nc3ccc(-c4ccc(F)cc4)cc3[C@H]21,0.5,-4,-4

Screening results deposited in PubChem by Broad Institute.
